HPGD block = blocks human HPGD enzyme activity | P15428 | purified HPGD, NADH fluorescence kinetic, PGE2 substrate | Potency, µM, inactives show top-dose activity change, negative = inhibition, usual class: inhibitors | actives 4.3% (n = 150,000) | AID 894; active = well fitted inhibition curve with a large enough effect (not every such curve was filed as active); inconclusive = small, poorly fitted or top-dose-only effect, or another doubt; inactive = no such curve, though single readings can be large or run the other way;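 also: top concentration of the series not given in the record; plate controls included wells without enzyme; inactives centre near -10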
Target sequence (P15428 whole entry, looked up): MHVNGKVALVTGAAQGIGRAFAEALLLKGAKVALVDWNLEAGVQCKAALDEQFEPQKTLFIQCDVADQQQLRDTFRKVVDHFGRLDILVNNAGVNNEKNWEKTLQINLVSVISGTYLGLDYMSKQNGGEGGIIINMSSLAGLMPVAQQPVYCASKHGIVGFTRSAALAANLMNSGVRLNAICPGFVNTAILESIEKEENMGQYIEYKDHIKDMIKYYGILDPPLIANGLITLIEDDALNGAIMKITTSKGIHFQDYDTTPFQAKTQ
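NADH formation kinetics: reaction with 30 uM PGE2 and 1 mM NAD+ (final), 20 nM enzyme, Tris-HCl pH 8 with Tween 20, after 15 min compound preincubation at room temperature. Fluorescence change, last versus first of five reads.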
Active calls of the source: *; ? = inconclusive. % is scaled to controls: 0 for no effect and ±100 for the full control effect; potency is read from the fitted curve at half-maximal effect. Some of the compounds tested; the hit share may differ from the screen's.

HPGD block,mol
-7.5%,CCN(CC)S(=O)(=O)c1ccc(Nc2cc(C)nc3ncnn23)cc1
-5.5%,CN1CCN(C(=O)C2(NC(=O)Nc3cccc(F)c3)CCCCC2)CC1
3.3%,Cn1c(Cc2csc(N)n2)nnc1SC/C=C/c1ccccc1
-11.3%,CCN(c1ccc(NC(=O)COC(=O)c2ccc(S(=O)(=O)N3CCCC3)cc2)cc1)C(C)C
?,CC1=CC(C)(C)Nc2ccc(CSc3ccccc3)cc21
-17.9%,O=c1[nH]c(N2CCN(c3ccccc3)CC2)nc2c1CCCC2
2.1%,Cc1cc(C(=O)NP(=O)(N2CCOCC2)N2CCOCC2)c(C)n1-c1ccc(N(C)C)cc1
-14.0%,COC(=O)c1sc(NC(=S)NC(=O)c2ccccc2Cl)nc1C
?,Cn1nnc(NC(=S)NC(=O)c2cccs2)n1
-3.5%,Cc1nc2ccc(NC(=O)C3CCN(S(=O)(=O)c4cccs4)CC3)cc2s1
-18.8%,Cc1cc(C)n2nc(C(=O)Nc3ccc(N4CCOCC4)cc3)nc2n1
-23.9%,O=[N+]([O-])C(/C=C(\Cl)[N+](=O)[O-])=C1N(Cc2ccc(Cl)nc2)CCN1Cc1ccc(Cl)nc1
-7.3%,CCn1c(COc2ccccc2C)nnc1SCC(=O)N1CCCCC1
-3.2%,CCCCCC(=O)N1CCN(CCN=CC2=C(O)CC(c3ccc(OC)c(OC)c3)CC2=O)CC1 (configuration not stated)
-7.3%,CCOC(=O)C1CCN(S(=O)(=O)c2ccc(-n3cnnn3)c(C)c2)CC1
-2.4%,Cc1ccc(C(=O)NCCCNCCCN(C)C)cn1
-11.7%,CC1=CC(C)(C)N(C(=O)c2ccccc2)c2ccc(C)cc21
-5.8%,O=C(Nc1ccc(F)cc1)C1CCCN(S(=O)(=O)c2cccc3cccnc23)C1 (configuration not stated)
?,Cc1c(C)c2cc(Cl)c(O)c(CN3CCN(C)CC3)c2oc1=O
0.7%,CC(C)CN1CC[C@@]2(CCCN(C(=O)c3cc(C(F)(F)F)cc(C(F)(F)F)c3)C2)C1
-18.2%,Cc1cc(NC(=O)CCC(=O)N(CC(=O)NC2CCCC2)Cc2ccccc2Cl)no1
-3.3%,CC(=O)N(C(C)=O)C1=C(C#N)C2(CCCCC2)Cc2ccccc21
?,O=C(Nc1cccc(C(F)(F)F)c1)c1cc(S(=O)(=O)N2CCCCC2)ccc1N1CCOCC1
-5.4%,CC1CN(c2nc3c(c(=O)n(Cc4ccc(Cl)cc4)c(=O)n3C)n2C)CC(C)O1 (configuration not stated)

3 entries out of the list, ordered by molecular weight, lowest first.
HPGD block,mol
-5.4%,CC1CN(c2nc3c(c(=O)n(Cc4ccc(Cl)cc4)c(=O)n3C)n2C)CC(C)O1 (configuration not stated)
-3.2%,CCCCCC(=O)N1CCN(CCN=CC2=C(O)CC(c3ccc(OC)c(OC)c3)CC2=O)CC1 (configuration not stated)
?,O=C(Nc1cccc(C(F)(F)F)c1)c1cc(S(=O)(=O)N2CCCCC2)ccc1N1CCOCC1

More compounds follow:
HPGD block,mol
-4.4%,C/C(=N\NC(=O)c1ccccc1)c1ccc(N2CCCCC2)cc1
?,CC(C)NC(=O)c1cc(C(=O)c2cc(Cl)ccc2O)coc1=N
?,C=CCCC(=O)Nc1nc(C)c(-c2csc(Nc3ccc(Cl)cc3)n2)s1
?,Cn1c(=O)c2ncn(CC(=O)Nc3cccc(-c4nc5ccccc5s4)c3)c2n(C)c1=O
-12.0%,Cc1ccc(Nc2c(-c3ccc(N4CCOCC4)cc3)nc3ncccn23)cc1
-26.5%,Cn1nc(CC(=O)N2CCN(c3ccccc3)CC2)c2ccccc2c1=O
-17.8%,O=C(COC(=O)COc1ccc(Cl)cc1Cl)Nc1cccnc1Cl
-11.5%,Cc1sc(NC(=O)CSc2nc(N)n(CC(=O)c3ccccc3)n2)c(C#N)c1C
-10.0%,O=C(Nc1ccc([N+](=O)[O-])cc1)C1C(c2ccccc2)=C1c1ccccc1
-12.5%,O=c1c([N+](=O)[O-])cc(C(F)(F)F)cn1Cc1c(Cl)cccc1Cl
?,COc1ccc(S(=O)(=O)N2CCN(c3ccc4nnc(-c5ccc(F)cc5)n4n3)CC2)cc1
-26.3%,O=C(N/N=C/c1ccccc1)c1ccc(N2CCOCC2)c([N+](=O)[O-])c1
-6.5%,COc1ccc(NC(=O)CN2CCN(c3ccccc3F)CC2)cc1
-10.5%,CO[C@H]1/C=C/O[C@@]2(C)Oc3c(C)c(O)c4c(O)c(c(/C=N/N5CCN(C)CC5)c(O)c4c3C2=O)NC(=O)/C(C)=C\C=C\[C@H](C)[C@H](O)[C@@H](C)[C@@H](O)[C@@H](C)[C@H](OC(C)=O)[C@@H]1C
-4.8%,COc1ccc(CCNC(=O)NC(C(F)(F)F)C(F)(F)F)cc1OC
-14.1%,Clc1ccccc1CSc1nc2ccncc2[nH]1
-21.5%,CCCCNC(=O)C1CCCN1C(=O)Nc1cccc(OC)c1 (configuration not stated)
-14.9%,CCOC(=O)c1cnn(-c2nc3c(C)cccc3s2)c1C
-11.5%,Cc1ccc(NC2=NCC(=O)N2CCc2ccccc2)cc1C
?,CN(C)c1ccc2c(O)cc(=O)n(C)c2c1
-6.6%,O=C(NC1CCCC1)C(c1ccccc1)N(C(=O)c1ccco1)C1CCCC1 (configuration not stated)
-5.1%,O=C(NC1CCN(C(=S)NCc2ccco2)CC1)c1ccc(F)cc1
-16.3%,CCOC(=O)CN1C(=O)C(=O)c2cc(C)ccc21
-8.9%,Nc1c(C(=O)NCc2ccco2)nnn1CC(=O)Nc1ccccc1

Three neighbouring records from above:
HPGD block,mol
-6.5%,COc1ccc(NC(=O)CN2CCN(c3ccccc3F)CC2)cc1
-10.5%,CO[C@H]1/C=C/O[C@@]2(C)Oc3c(C)c(O)c4c(O)c(c(/C=N/N5CCN(C)CC5)c(O)c4c3C2=O)NC(=O)/C(C)=C\C=C\[C@H](C)[C@H](O)[C@@H](C)[C@@H](O)[C@@H](C)[C@H](OC(C)=O)[C@@H]1C
-4.8%,COc1ccc(CCNC(=O)NC(C(F)(F)F)C(F)(F)F)cc1OC

(cont.)
HPGD block,mol
-6.4%,O=C(Nc1ccc(N2CCCC2)cc1)c1ccc2ccccc2c1
2.0%,O=C(O)Cn1c(SCCOc2ccccc2F)nc2ccccc21
-9.7%,CCOc1ccc(NS(=O)(=O)c2ccc3c(c2)CCN3C(=O)C2CCC2)cc1
-9.4%,c1ccc(N2CCN(Cc3cn4cccnc4n3)CC2)cc1
-6.6%,O=C(NCc1ccc2c(c1)OCO2)C1CCC(CNS(=O)(=O)c2ccc(Cl)cc2)CC1 (configuration not stated)
-11.7%,CCOC(=O)c1ccc(NC(=O)COC(=O)c2cccc(Oc3ccccc3)c2)cc1
-22.1%,N#Cc1sc2nc(-c3cccs3)cc(-c3ccc(F)cc3)c2c1N
-12.1%,COC(=O)CCC(=O)N1CCc2cc(S(=O)(=O)N3CCN(c4ccccc4Cl)CC3)ccc21
-4.3%,CSCCC(NS(=O)(=O)c1ccc(Cl)cc1)C(=O)OCC(=O)c1ccc(F)cc1 (configuration not stated)
-5.1%,Cc1ccc(-c2nc(CS(=O)(=O)CC(=O)N3CCc4ccccc4C3)c(C)o2)cc1
-14.8%,COc1ccc(OC)c(C2c3c(oc4ccccc4c3=O)C(=O)N2CCCN(C)C)c1 (configuration not stated)
-14.0%,CCOC(=O)COc1ccccc1/C=C1/NC(=O)NC1=O
-14.0%,CCOC(=O)c1cnc2ccccc2c1NCCO
-13.1%,CCOC(=O)Oc1c(OC)cc(C(=O)O[C@H]2C[C@H]3CN4CCc5c([nH]c6cc(OC)ccc56)[C@@H]4C[C@H]3[C@@H](C(=O)OC)[C@@H]2OC)cc1OC
-10.0%,CCn1c(SCC(=O)c2ccc(Br)cc2)nnc1C(C)NC(=O)Cc1ccc(OC)cc1 (configuration not stated)
-8.0%,C[C@]12CCC(=O)C=C1CCC1C3CC[C@](O)(C(=O)CO)[C@@]3(C)CC3OC312 (some centres not stated)
-9.9%,O=C1CC(C(=O)NCc2ccccc2)N=C(N2CCCCC2)N1 (configuration not stated)
-5.0%,CS(=O)(=O)N1CCN(Cc2ccc(C(F)(F)F)cc2)CC1
?,CCCCn1c(-c2ccco2)n[nH]c1=S
25.1µM*,O=C(Cc1cccs1)NCc1ccc(F)cc1
-9.6%,CCOc1ccc(C(C)=O)cc1CSc1nnc(-c2cccs2)n1CC1CCCO1 (configuration not stated)
-2.1%,C=CCSc1nc(C)c(CC(=O)OCCCC)c(=O)[nH]1
-23.7%,CCc1c(OC(C)=O)c2ccccc2n(C)c1=O
-9.5%,O=C(COC(=O)c1cncc(Br)c1)NCC1CCCO1 (configuration not stated)
-8.7%,CC(=O)Nc1ccc(SCC(=O)c2cc(C)n(-c3ccccc3)c2C)cc1
-13.5%,O=C(COC(=O)c1cc2ccccc2oc1=O)c1cccc([N+](=O)[O-])c1
?,CN(C)c1ccc(C(=O)OCc2ccccc2)cc1
-11.3%,O=C(C1=COCCO1)N1CCN(S(=O)(=O)c2cccc(Cl)c2Cl)CC1
-14.6%,Cc1c(C)n(Cc2ccccc2)c2ncnc(N)c12
-1.0%,CCc1nc(-c2ccc(C)nc2OC)no1
-13.1%,Cc1ccc(NC(=O)CSc2nnc(-c3cnccn3)n2-c2ccccc2)cc1
-27.8%,CCc1ccc(OCC(=O)Nc2cccc3c2CCCC3)cc1
-12.8%,CCn1c(SCC(=O)Nc2ccccc2)nnc1-c1ccc(S(=O)(=O)N2CCOCC2)cc1
-6.5%,Cc1cc(C(=O)OCCN2C(=O)c3ccccc3C2=O)c2ccccc2n1
-21.9%,O=C(NCCc1c[nH]c2ccccc12)c1cnc2n(c1=O)CCS2
-8.6%,Cc1cc(C(=O)N2CCN(c3ccccn3)CC2)no1
-10.4%,CC1(C)CC(=O)C(C=NCCN2CCN(C(=O)c3ccccc3)CC2)=C(O)C1
-4.2%,CCOc1ccc(C(=O)Nc2ccccc2N2CCCC2)cc1
-20.6%,O=S(=O)(c1ccc(N2CCN(c3ccc(F)cc3)CC2)cc1)N1CCCC1
?,COc1cccc(C(=O)NCC2CCN(c3ccc(S(=O)(=O)N4CCOCC4)cc3)CC2)c1
-18.4%,c1ccc(CSc2ccc(-c3ccco3)nn2)cc1
-6.8%,CN(Cc1ccccc1)C(=O)N[C@@H](Cc1ccccc1)C(=O)O
1.2%,Clc1ccc(Cc2nc(-c3cccnc3)no2)cc1
-9.1%,O=C(Nc1ccncc1)C1CC1c1ccccc1 (configuration not stated)
?,COc1ccc(C2=Nc3nc(-c4ccccc4)cn3C(c3ccc(OC)cc3)C2)cc1 (configuration not stated)
-15.7%,CCCc1nnc(NC(=O)CCC(=O)N2CCN(CCn3c(C)ccc3C)CC2)s1
-19.8%,Cc1ccc(/C=C(/C#N)C(=O)NC(C)c2ccccc2)o1 (configuration not stated)
-9.7%,CCc1c(C(=O)NCc2ccc3c(c2)OCO3)[nH]c(C)c1C(C)=O
-5.3%,CCOC(=O)Cc1csc(NC(=O)CC)n1
-14.9%,Cc1ccc(N2CCN(C(=O)c3ccccc3F)CC2)c(C)c1
-6.1%,COc1cc(C(c2sc3nc(C)nn3c2O)N2CCC3(CC2)OCCO3)cc(OC)c1OC (configuration not stated)
-10.0%,COC(=O)c1ccc(C2C(C(C)=O)=C(O)C(=O)N2CCO)cc1 (configuration not stated)
-0.2%,Cc1cccc(C)c1NC(=O)C(=O)NCCOc1ccc(Cl)cc1
-8.2%,Cc1ccc(-c2noc(CN3CCCCC3)n2)cc1
?,COc1cc(C(=O)OCC(=O)N(C)C)cc(NC(=O)c2ccco2)c1OC
-10.2%,CCCC[C@@H]1C[C@H]1C(NC(=O)c1ccco1)c1ccc(Cl)cc1 (some centres not stated)
-3.5%,CN(C)CCCOC(=O)C1c2ccccc2Oc2ccccc21
?,CCOC(=O)c1[nH]c(C)c(C(=O)Nc2ccccc2C)c1C
20µM*,CCN(CC)C(=O)CC(c1ccc(F)cc1)c1ccco1 (configuration not stated)
28.2µM*,O=C(O)c1cccc(Cn2c(Cl)c(/C=N/NC(=O)c3ccccc3Cl)sc2=O)c1

Next part.
HPGD block,mol
?,C=CCN(CC=C)C(=O)c1cc2ccccc2c(=O)o1
-23.8%,COc1ccc(N2CCN(CCNC(=O)c3ccc(NC(=O)C4CCCO4)cc3)CC2)cc1 (configuration not stated)
14.1µM*,COc1cccc(C(=O)NCCC2=CCCCC2)c1
-6.0%,COc1ccc(CC(=O)N2CCNC2=O)cc1
-18.0%,CC1(C)Cc2c(sc3nc(-c4ccccc4Cl)n(N)c(=O)c23)CO1
-17.0%,Cc1nn(C)c(C)c1S(=O)(=O)N1CCCC(C(=O)NC2CCCCC2)C1 (configuration not stated)
-7.1%,CC[C@H]1OC(=O)[C@H](C)[C@@H](O[C@H]2C[C@@](C)(OC)[C@@H](O)[C@H](C)O2)[C@H](C)[C@@H](O[C@@H]2O[C@H](C)C[C@H](N(C)C)[C@H]2O)[C@](C)(O)C[C@@H](C)CN(C)[C@H](C)[C@@H](O)[C@]1(C)O
2.2%,CCCCCCCCCc1nc(N)n[nH]1
?,CCn1c(SCc2nc3ccccc3c(=O)[nH]2)nc2ccccc2c1=O
-9.6%,O=C(c1ccc(F)cc1)N1CCCCC(Sc2nnc3ccccn23)C1=O (configuration not stated)
0.5%,CC(C)Cn1cnc2c(Sc3c([N+](=O)[O-])ncn3C)nc(N)nc21
-20.8%,Cc1cc(SCC#N)n2nc(C)c(-c3ccccc3)c2n1
0.2%,CCOc1nc2c(c(=O)n(C)c(=O)n2C)n1Cc1ccccc1Cl
5.9%,Cc1ccc(SCC(=O)NCCCN2CCOCC2)cc1
2.2%,COc1ccc(C2NCCC3(O)CCCCC23)c(OC)c1OC (configuration not stated)
-9.1%,Cc1occc1C(=O)N1N=C(C2CC2)CC1(O)C(F)(F)F (configuration not stated)
-4.6%,O=S1(=O)C=C(SCCN2CCCCC2)c2ccccc21

Bioassay records: PubChem, National Center for Advancing Translational Sciences (NCATS)
